# MT1-MMP act inh – inhibitors of human MT1-MMP activation | P50281 | HT1080 RFP-PRO-GFP cells, GFP/RFP ratio fluorescence, overnight; percent of plate control window, DMSO zero | GFP/RFP ratio change, % at 20 µM | actives 0.061% (n = 360,000);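 active means GFP/RFP ratio change of at least 30% with cell ATP level not reduced by more than half and red fluorescence within 50% of control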; further: strong numbers were not always called active
#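 Assay system – RFP-PRO-GFP reporter HT1080 cells · Compound dosing – single dose of 20 µM compound, 1% DMSO final · Incubation – overnight compound exposure at 37 °C · Measure – GFP/RFP fluorescence ratio · Benchmarks – DMSO wells and RFP-L50D-GFP cells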
# Env fusion inh – inhibitors of HIV Env-mediated cell fusion. HeLa-JRFL Env/CEM21 cell fusion, luciferase. inhibition, % at 12.3 µM. actives 1.1% (n = 360,000). AID 651610;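 active means mean replicate inhibition score of at least 50 and every replicate individually at or above 50; inconclusive means only one of the two criteria met; inactive means mean below 50 and not all replicates reaching 50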;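 further: 0% = plate neutral controls and 100% = maraviroc near 300 nM; one replicate is shown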
# eIF4H inh – inhibitors of RNA binding by human eIF4H. eIF4H fluorescence polarization binding assay. AID 2012. actives 0.94% (n = 290,000). Q15056. inhibition, % at 35 µM;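 active means 50% or more with normal probe brightness, or confirmed in later tests; inconclusive means above 50% with abnormal brightness, or retests that disagree; inactive means below 50% or failed in later tests; about a fifth of its hits are not listed in these tables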;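 further: calls also rest on retests at 20 µM and on dose response follow-up; 0% = protein and probe with vehicle and 100% = probe without protein; strong numbers were not always called active; many hits fall short of the cut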
# Yeast UUG start – modulators of start codon recognition fidelity in yeast. S. cerevisiae UUG-firefly luciferase reporter, luminescence/redox ratio. activity score, % at 18.7 µM. actives 0.13% (n = 350,000);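 active means replicate mean at a twofold rise or more, about +100% in these data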;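 further: firefly luciferase made from a UUG start codon reports start codon fidelity; reporter light over untreated wells divided by growth signal over untreated wells; some hits fall short of that in this replicate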
# CSC inhib – cancer stem cell inhibition; cancer stem cell-like cells viability, luminescence; inhibition, % at 7.5 µM; actives 1.1% (n = 300,000); AID 2717;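 active means mean at 75% or more and at least half the replicates too; inconclusive means mean and replicates disagree; tested in HMLE shEcad cells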;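 further: 0% = median of negative and 100% = median of positive control wells; the first replicate is given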
# PABP FP inh – PABP-poly(A) binding inhibition | P11940 | PABP-poly(A) RNA binding, fluorescence polarization | inhibition, % at 35 µM | actives 1% (n = 290,000);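 active means 50% or more with normal probe brightness, or confirmed in later tests; inconclusive means above 50% with abnormal brightness, or retests that disagree; inactive means below 50% or failed in later tests; about a fifth of its hits are not listed in these tables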;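 further: calls also rest on retests at 20 µM and on dose response follow-up; controls were probe without protein and protein plus probe with vehicle; some compounds called inactive have numbers as strong as hits; many hits fall short of the cut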
# Rce1 inh – yeast Ras-converting enzyme inhibition. actives 0.27% (n = 290,000). AID 2563. Q03530. yeast membranes, quenched prenylated peptide cleavage fluorescence. calls only;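 active means fall in fluorescence gain of 50% or more versus controls, with final raw signal at or below 3038400; inconclusive means same 50% fall but final raw signal above 3038400; inactive means fall in fluorescence gain under 50%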;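 further: plate controls were neutral control wells for no effect and wells lacking membranes for full effect; tested at 10 µM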
# Target sequence (Q03530 whole entry, looked up): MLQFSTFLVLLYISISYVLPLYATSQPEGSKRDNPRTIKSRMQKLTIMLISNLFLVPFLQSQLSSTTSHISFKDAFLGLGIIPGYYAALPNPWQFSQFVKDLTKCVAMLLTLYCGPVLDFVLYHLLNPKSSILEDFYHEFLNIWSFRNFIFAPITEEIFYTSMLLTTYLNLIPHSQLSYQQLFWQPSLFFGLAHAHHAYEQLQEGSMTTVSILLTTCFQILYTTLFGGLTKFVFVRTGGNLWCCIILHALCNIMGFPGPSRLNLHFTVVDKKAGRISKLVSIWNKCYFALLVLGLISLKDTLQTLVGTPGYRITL
# eIF4H inh retest – second read-out of eIF4H inh, no call of its own (marks repeat the call); inhibition, %; compound at 20 µM; confirmation average;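 mean of two retest wells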
# PABP FP inh retest – recorded beside PABP FP inh, whose call it bears; inhibition, %; compound at 20 µM; confirmation repeats;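 mean of two retest wells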
# MT1-MMP act inh RFP – recorded beside MT1-MMP act inh, whose call it bears; RFP signal change, %; measured here: RFP expression control read;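 0 = vehicle wells; hits needed this value within 50% of zero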
# Numbers without * were called inactive; i = inactive; u = inconclusive; x = no result given; & = joins results of further samples; [ ] = dose if it differs, or a comment.
SMILES,MT1-MMP act inh,MT1-MMP act inh RFP,Env fusion inh,eIF4H inh,Yeast UUG start,CSC inhib,PABP FP inh,Rce1 inh,others
COc1ccc(CNC(=O)C(=O)NCC2OCCN2S(=O)(=O)c2ccc(F)cc2)cc1 (stereo unspecified),-1,0,-12,-3,-1,-30,8,i,
CC(C)NCC(O)COC1C2CC3CC(C2)CC1C3 (stereo unspecified),0,5,12,2,x,9,1,i,
C[C@@H]1CN([C@H](C)CO)C(=O)CCCn2nncc2CO[C@@H]1CN(C)C(=O)CCC(F)(F)F,0,0,3[16.7 µM],x,-1&-7&-4,x,x,x,
CN(CCCC1CCCC1)C(=O)c1cc(COc2ccc(F)c(F)c2)on1,3,4,0,0,4,23,-4,i,
Cc1cc(S(=O)(=O)NCCCN2CCOCC2)c(C)cc1Cl,3,-1,-9,-5,-13,8,-7,i,
COCCn1nnnc1C(c1cc2cc(OC)ccc2[nH]c1=O)N1CCC(Cc2ccccc2)CC1 (stereo unspecified),-9,-8,x,-8,8,-4,11,i,
CC(Oc1ccccc1)C(=O)Nc1ccc(S(=O)(=O)Nc2nccs2)cc1 (stereo unspecified),0,5,4,7,-10,20,-2,i,
Cc1ccc(S(=O)(=O)N2CCSC2=Nc2ccccc2)cc1,x,x,x,-2,x,5,-3,i,
CC(=O)c1ccc(S(=O)(=O)NC2CC(=O)N(c3ccc4c(c3)OCCO4)C2)cc1 (stereo unspecified),-2,-4,x,x,x,-3,x,i,
O=C(c1ccncc1)N1CCN(S(=O)(=O)c2ccccc2Br)CC1,-3,0,3,x,11,x,x,x,
CCN(Cc1ccc(O)cc1)CC1CCCN(CCc2cccc(F)c2)C1 (stereo unspecified),6,6,8,5,-1,-1,11,i,
CCN1CCCC1CNC(=O)C1c2ccccc2C(=O)N(CCOC)C1c1ccc(F)cc1 (stereo unspecified),1,2,-26,4,-8,-7,4,i,
Cc1ccc(C)c(OCC(=O)Nc2ccc(S(=O)(=O)Nc3onc(C)c3C)cc2)c1,-1,4,17,-5,-12,-5,16,i,
C=C(C)C1CCC(C)=C1CC(C)(C)/C=N\n1cnnc1 (stereo unspecified),-4,-11,x,1,-5,-5,7,i,
O=C(CN1CCOCCOCCOCCOCC1)Nc1ccccc1,2,9,x,-6,-10,-1,-7,i,
COC(=O)c1cc2oc(C)cc2n1CC(=O)Nc1cc(C)cc(C)c1,-1,2,x,1,2,x,0,i,
CCc1ccc[n+](-c2nc3ccccc3nc2C(=C=[N-])C#N)c1,-17,14,-3,u,x,-14,u,i,
O=C(c1c[nH]c2ccccc12)N1CCOCC1,2,4,19,6,-13,4,12,i,
Cc1ccc2nc(C)c(C(=O)N/N=C/c3cccc([N+](=O)[O-])c3)cc2c1,1,-4,-22,-4,x,-18,4,i,
CC(C)C(=O)Nc1nnc(SCC(=O)NC2CCCC2)s1,5,2,-10,-7,-38,-9,28,i,
Cc1ccc2c(cnn2C(=O)CCCC(=O)NCc2ccc(F)cc2)c1,3,3,-44,-5,-17,x,-6,i,
CCOC(=O)c1c(C)[nH]c(C(=O)C(C)Sc2ccc(Cl)cc2)c1C (stereo unspecified),-11,-21,x,4,x,9,9,i,
CN(CCCNC(=O)C1CCN(S(=O)(=O)N2CCC3(CC2)OCCO3)CC1)Cc1ccccc1,1,4,-26,4,-6,-14,16,i,
Cc1cnc(=O)[nH]c1SCc1ccccc1F,-1,-1,10,-2,-12,16,2,i,
COc1ccc(-c2onc3ccc(C(=O)/C=C/N(C)C)cc23)cc1,-11,-5,33,39,-16,-2,24,i,
COc1ccc(Cc2nc(-c3ccc(-n4cccc4)cc3)no2)cc1OC,6,-27,31,-1,-13,1,-6,i,
CCN(CC)C(=O)c1cn(CCC#N)nc1-c1ccc2c(c1)OCCO2,5,9,-7,0,x,-10,-2,i,
O=C(CN1C(=O)c2cccc3cccc1c23)N1CCN(c2ccc(F)cc2)CC1,7,-2,x,-1,-7,-14,-9,i,
COc1cccc(C(=O)Cn2c(NCCO)nc3ccccc32)c1,3,4,x,-2,-17,-10,18,i,
CN(CC(=O)Nc1ccccc1Cl)C(=O)c1ccc(N2C(=O)CCC2=O)cc1,-1,-1,3,x,-13,x,x,x,
Cc1cccc(OCC(=O)Nc2ccc3nc(C)sc3c2)c1,0,0,-23,-1,x,-8,2,i,
COc1ccc(COc2ccsc2C(=O)Nc2ccc(Cl)c(Cl)c2)cc1,-1,0,-64,-5,-20,17,3,i,
COc1ccc(C(=O)N2CCCC(c3cc(C(=O)NCc4cccnc4)no3)C2)cc1 (stereo unspecified),-4,-1,20,x,-14,x,x,x,
CC(C)=CC1C(C(=O)Nc2ccc(S(=O)(=O)N3CCOCC3)cc2)C1(C)C (stereo unspecified),1,-11,0,x,-7,-3,x,i,
COc1cc(SC)ccc1C(=O)NCCCn1ccnc1,0,-4,2,-5,-9,-7,6,i,
COC(=O)COc1cccc(NC(=O)c2cccc(C)c2)c1,-2,0,-18,0,x,11,6,i,
Cc1ccc(O)c([C@H](CCN(C(C)C)C(C)C)c2ccccc2)c1,-6&-1,-2&5,-30&2,-16,-10&5,-4&-16,-8,i,
CCOCC(=O)Nc1nc(-c2ccccc2)c(CC)s1,2,1,-29,1,7,x,-1,i,
C/C(=N\NC(=O)C1CC1)c1ccccc1Br,-3,3,3,-2,-10,1,-4,i,
Cc1ccc(CN2C(=O)CSC2c2ccc(F)cc2)cc1 (stereo unspecified),-1,1,13,-1,-12,4,11,i,
COc1ccc(N(CC(=O)NCc2ccco2)S(=O)(=O)c2c(C)nn(C)c2C)cc1,-1,2,u,-12,-4,-5,-10,i,
NS(=O)(=O)c1ccc(CCNC(=O)CN2C(=O)NC(c3ccccc3)(c3ccccc3)C2=O)cc1,0,1,19,x,1,-18,x,x,
COCC(=O)Nc1nnc(Cc2ccc(OC)cc2)s1,0,1,-66,-1,0,-5,3,i,
c1cncc(CNc2ncnc3sc4c(c23)CCCC4)c1,1,-2,10,-2,x,-5,7,i,
CN(C)CCCN1C(=O)c2oc3ccccc3c(=O)c2C1c1cccs1 (stereo unspecified),-32,5,-25,6,-10,-7,-4,i,
NS(=O)(=O)c1ccc(CCNC(=O)C(=O)NCC2OCCN2S(=O)(=O)c2cc(F)ccc2F)cc1 (stereo unspecified),-1,2,15,0,-15,10,0,i,
CCOc1cccc(CN2CCC(Oc3ccc(C(=O)NCc4ccccn4)cc3)CC2)c1,-1,1,-4,7,-24,-7,6,i,
CN1C(=O)CSc2ccc(NC(=O)NCc3cccnc3)cc21,2,2,x,-2,-7,-11,0,i,
Cc1nn(-c2ccccc2)c(N2CCCC2)c1/C=N/Nc1ccc(S(=O)(=O)Nc2ccccc2)cc1[N+](=O)[O-],5,-8,23,0,x,u,12,i,
COc1cc(/C=N\Nc2ccc([N+](=O)[O-])cn2)ccc1OCC(=O)O,x,x,x,-3,x,2,13,i,
NC(=O)c1ccc[n+]([C@H]2O[C@@H](COP(=O)([O-])OP(=O)(O)OC[C@H]3O[C@@H](n4cnc5c(N)ncnc54)[C@H](O)[C@@H]3O)[C@H](O)[C@@H]2O)c1,1,3,x,x,-19,-5,x,x,
CCc1cc2c(=O)oc(-c3ccc(Br)cc3)nc2s1,3,-1,-13,-2,-10,x,0,i,
O=C(NCCO)C1(c2ccccc2)CCCC1,-1,2,x,-6,-3,-11,-10,i,
CC(=O)C1=C(O)C(=O)N(c2nccs2)C1c1ccc(Br)cc1 (stereo unspecified),1,-2,x,-4,-11,1,0,i,
O=C(Nc1cccc(-c2nc3ccccc3s2)c1)C1=COCCO1,5,5,-16,-7,x,11,-5,i,
Cn1c(=O)n(Cc2ccccc2)c(=O)c2c1nc(NCC1CCCO1)n2Cc1ccccc1 (stereo unspecified),-21,-17,-19,30,10,73,18,i,
CCn1c(=S)sc2c(=O)[nH]c(SCC(=O)Nc3cc(OC)ccc3OC)nc21,0,-5,-6,13,-16,1,21,i,
CC1CCN(C2CC(=O)N(c3ccc(Br)cc3Br)C2=O)CC1 (stereo unspecified),-2,4,-11,79,-13,-15,3,i,eIF4H inh retest=-4;PABP FP inh retest=4
O=C(CN1C(=O)CCC1=O)NC(=O)NC1CCCC1,0,1,0,-8,-10,-10,3,i,
O=c1c2ccccc2c2ccccc2c(=O)n1Cc1ccco1,1,0,x,14,-9,-14,-2,i,
# The results go on:
SMILES,MT1-MMP act inh,MT1-MMP act inh RFP,Env fusion inh,eIF4H inh,Yeast UUG start,CSC inhib,PABP FP inh,Rce1 inh,others
COC(=O)c1c(NC(=O)C(C)(C)C)sc2c1CCN(Cc1ccccc1)C2,4,-16,35,-2,21,20,-8,i,
CCOC(=O)CSc1nc2sc(C)c(C)c2c(=O)n1C,2,3,4,-2,-14,-11,9,i,
COc1cc(C2N(c3ccccc3)CCN2c2ccccc2)ccc1OC(C)=O,3,3,x,6,-19,-4,-2,i,
COc1cc2oc(=O)cc(CN3CCN(C(C)=O)CC3)c2cc1Cl,2,2,-21,x,9,x,x,x,
COCCn1c(SCC(=O)NC2CCCC2)nnc1C(C)C,3,4,-2,-8,0,-12,3,i,
Cc1cc(N=Cc2c(O)n(-c3ccc4c(c3)OCO4)c(=O)c3ccccc23)ccn1,-4,0,-142,6,5,-1,-3,i,
O=C(Nc1cccc(-c2cnc3ccccc3n2)c1)c1ccncc1,9,-5,-3,-2,x,-3,48,i,
CCOC(=O)c1n[nH]n2c1nc(=S)c1ccccc12,1,5,7,7,3,-4,16,i,
NS(=O)(=O)c1ccc(CCNC(=O)COC(=O)c2cc([N+](=O)[O-])ccc2N2CCOCC2)cc1,2,0,9,x,2,-4,x,i,
COc1ccc(NS(=O)(=O)c2cccc(C(=O)NCc3ccco3)c2)cc1,4,-2,x,x,-9,-7,x,i,
CC(C)(C)NC(=O)COC(=O)c1ccc(Cl)cc1O,2,3,7,-10,-24,-7,-16,i,
CCN1CCCc2cc(CN(CCN3CCOCC3)C(=S)Nc3ccc(OC)c(OC)c3)ccc21,-1,0,20,-1,x,2,-8,i,
CCOc1c(Br)cc(CNc2ncn[nH]2)cc1OC,2,2,x,-2,-23,-2,-20,i,
CC1=NN(C(N)=S)C(=O)C1N=Nc1ccc(S(N)(=O)=O)cc1 (stereo unspecified),6,3,14,37,-21,-17,16,i,
O=C1NC(c2ccccc2)=CC(c2ccccc2)N1 (stereo unspecified),5,2,-6,2,-4,1,4,i,
CCc1ccc(NS(=O)(=O)c2c(C(=O)N3CCCCCC3)c(C)n(C)c2C)cc1,-3,2,12,-8,-6,5,-1,i,
CCOC(=O)c1sc(NC(=O)c2ccc(=O)[nH]c2)nc1C,0,2,-3,2,-14,4,6,x,
CC(C)c1ccc(NC(=O)Nc2nnc([C@@H]3C[C@H](O)[C@@H](CO)O3)s2)cc1,-1,-4,10,x,-12,x,x,x,

# Molecules listed so far containing a tert-butyl group:
SMILES,MT1-MMP act inh,MT1-MMP act inh RFP,Env fusion inh,eIF4H inh,Yeast UUG start,CSC inhib,PABP FP inh,Rce1 inh,others
COC(=O)c1c(NC(=O)C(C)(C)C)sc2c1CCN(Cc1ccccc1)C2,4,-16,35,-2,21,20,-8,i,
CC(C)(C)NC(=O)COC(=O)c1ccc(Cl)cc1O,2,3,7,-10,-24,-7,-16,i,

# Assay outcomes deposited in PubChem by several laboratories.
